# Screening results: PubChem BioAssay, National Center for Advancing Translational Sciences (NCATS)
# NPR1 antag: human Npr1 receptor antagonism; P16066; HEK293 hNpr1 GloSensor cGMP, ANP-stimulated luminescence; Potency, µM (highest dose often 46.3 µM), for the others: top-dose activity change, negative = inhibition, usual class: inhibitors; 76,000 tested, 1.6% active; AID 1347048; active = well fitted inhibition curve with a large enough effect; inconclusive = small, poorly fitted or top-dose-only effect; inactive = no such curve, though single readings can be large or run the other way;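 further: nearly all actives have a fitted effect of over 60% in size; nearly all hits also lower the signal before the agonist is added; a reference antagonist and vehicle were the controls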
# Target sequence (P16066 whole entry, looked up): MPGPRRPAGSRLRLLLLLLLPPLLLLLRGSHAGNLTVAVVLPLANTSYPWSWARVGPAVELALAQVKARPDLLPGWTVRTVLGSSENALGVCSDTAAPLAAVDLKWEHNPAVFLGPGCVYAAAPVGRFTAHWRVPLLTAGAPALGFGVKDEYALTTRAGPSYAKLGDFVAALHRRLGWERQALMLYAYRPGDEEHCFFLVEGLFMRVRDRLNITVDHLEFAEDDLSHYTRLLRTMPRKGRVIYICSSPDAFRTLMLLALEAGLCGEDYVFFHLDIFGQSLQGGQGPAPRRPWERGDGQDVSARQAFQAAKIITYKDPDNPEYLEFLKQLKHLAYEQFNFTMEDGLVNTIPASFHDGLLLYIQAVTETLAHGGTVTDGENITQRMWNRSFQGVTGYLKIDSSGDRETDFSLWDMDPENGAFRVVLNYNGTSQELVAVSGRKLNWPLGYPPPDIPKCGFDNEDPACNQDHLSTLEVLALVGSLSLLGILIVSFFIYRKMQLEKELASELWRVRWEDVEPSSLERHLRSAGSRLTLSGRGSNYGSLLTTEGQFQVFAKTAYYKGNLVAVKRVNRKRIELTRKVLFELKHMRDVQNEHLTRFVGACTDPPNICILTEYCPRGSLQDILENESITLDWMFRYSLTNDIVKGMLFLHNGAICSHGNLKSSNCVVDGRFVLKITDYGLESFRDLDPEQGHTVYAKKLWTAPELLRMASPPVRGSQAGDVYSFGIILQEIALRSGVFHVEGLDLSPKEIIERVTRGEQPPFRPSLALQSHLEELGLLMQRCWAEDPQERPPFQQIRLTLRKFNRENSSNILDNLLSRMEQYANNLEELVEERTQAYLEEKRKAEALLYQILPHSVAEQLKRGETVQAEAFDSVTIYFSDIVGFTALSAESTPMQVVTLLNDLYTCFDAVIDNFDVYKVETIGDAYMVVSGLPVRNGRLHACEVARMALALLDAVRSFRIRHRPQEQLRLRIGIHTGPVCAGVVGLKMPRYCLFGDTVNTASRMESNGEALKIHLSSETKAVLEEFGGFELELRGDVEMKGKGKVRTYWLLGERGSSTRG
#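 HEK293 cells stably expressing human Npr1 and cGMP GloSensor pGS-40F, loaded 2 h with 2% GloSensor reagent, given compound 30 min at room temperature. Luminescence read before and 20 min after 0.1 nM hNppA.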
# Numbers without * were called inactive; ? = inconclusive; [ ] = dose if it differs, or a comment. On the % scale 0 is the no-effect control and ±100 the full control effect; potency means the concentration at half of the fitted maximal effect. Not all compounds are listed. The share of hits here may be higher or lower than overall.
SMILES,NPR1 antag
O=C1COC[C@H]([C@H](O)c2ccc(NS(=O)(=O)c3ccc(F)cc3)cc2)N1,0%[70.6 µM]
CS(=O)(=O)c1cnc(NCCCn2cccn2)nc1C1CCCNC1 (centres undefined),-1%
Cc1cnc(C(=O)NC2CC(=O)N(Cc3cccc4ccccc34)C2)cn1 (centres undefined),-1%
COc1ccccc1-c1ccc(CN2CCN(c3cc(Cl)ncn3)C(=O)C2)cc1,-11%[70.6 µM]
COCCNC(=O)c1nc2c(o1)CCN(Cc1cc(C)cc(F)c1)CC2,-11%[70.6 µM]
Cc1cc(C(=O)N2C[C@@H](Oc3cccnc3)C[C@H]2C(=O)N2CCCC2)n(C)n1,-2%
CC(=O)N1C[C@@H](CO)[C@H](NC(=O)c2ccccc2)C1,7%
O=c1n(-c2ccc(F)cc2F)nc2n1CCN(Cc1ccc(F)cc1)C2,19%
CN1C(=O)C(CC(=O)N2CCOCC2)=C2CCCCC21 (centres undefined),2%
OCc1nc(C2CCNC2)no1 (centres undefined),6%
COCCNC(=O)c1cnc2c(c1)N(Cc1ccccc1)CCC2,-2%[70.6 µM]
CN1C(=O)CS(=O)(=O)C12CCN(C(=O)c1ccccc1F)CC2,-15%
N#Cc1ccc(S(=O)(=O)N[C@H]2[C@H](O)[C@H](O)C[C@@H]2c2ccccc2)cc1,-1%[70.6 µM]
CN1CCC2(CCC1=O)CN(C(=O)c1cnn3c1CCCC3)CCN2C (centres undefined),4%
COc1ccc(C2Cn3nnc(-c4noc(/C=C/c5ccco5)n4)c3CO2)cc1 (centres undefined),11%
COc1ccc(-c2noc([C@@H]3CCCN3C(=O)c3cc(C)cc(C)c3)n2)cc1,-2%
O=C(NC[C@H]1O[C@@H]2C[C@@H](CC(=O)N3CCOCC3)O[C@@H]2[C@@H]1O)Nc1ccc(F)cc1,-11%[70.6 µM]
CSCC(=O)N1C[C@@H](NC(=O)NC(C)C)C[C@H]1C(=O)N[C@H](Cc1c[nH]c2ccccc12)C(N)=O,-3%
CCCNC(=O)N1CCCC(c2nn(C)c(=O)n2CC)C1 (centres undefined),0%
N#Cc1ccc(O[C@@H]2CCOC[C@H]2NC(=O)NCc2ccco2)cc1,0%
CC(C)(C)CC(=O)N1CCN(c2nc(-c3ccccc3)nc3c2CCC3)CC1,-1%
COc1ccccc1CC(=O)NC1CCN(c2cc(C(F)(F)F)nc(C)n2)CC1,-16%
C[C@@H]1CN(C(=O)CC2CCCC2)C[C@@]1(O)C1CC1,7%
CCS(=O)(=O)Nc1ccc(-c2nc(C3CCOC3)no2)cc1 (centres undefined),2%
COc1ccc2c(c1)nc1n2[C@@H](CNCc2ccc3c(c2)OCO3)COC1,?
N#Cc1cccc(C(=O)N2CCC(n3cc(-c4nc(-c5ccccc5)no4)nn3)CC2)c1,-25%
COCCOC1CCOC2(CCN(C(=O)NCc3ccccc3)CC2)C1 (centres undefined),5%
COc1ccc(CCc2nc3nccc(-c4ccc(OC)c(OC)c4)n3n2)cc1,2%
CCn1cc(S(=O)(=O)N2CCC(Cc3nc(-c4cccnc4)n[nH]3)C2)cn1 (centres undefined),-1%
Cn1cnc2cc(-c3cccc(N4CCOCC4)c3)cc(C(=O)NCc3cccnc3)c21,0%[70.6 µM]
CC1CCC2(CC1)NC(=O)N(CC(=O)NCc1ccco1)C2=O (centres undefined),4%
CCOc1cccc(-c2noc(-c3nnn4c3COC(c3ccc(Cl)cc3)C4)n2)c1 (centres undefined),2%
CC1CCC(NC(=O)C2(c3ccc(NS(C)(=O)=O)cc3)CCCCC2)CC1 (centres undefined),6%
Cc1ccc(S(=O)(=O)N[C@H]2CO[C@H]3[C@@H]2OC[C@H]3O)cc1,1%[70.6 µM]
N#Cc1ccc(C(=O)N2CCCN(S(=O)(=O)c3ccccc3)CCC(=O)NCC2)cc1,-2%
CCN1CCN(CCNC(=O)CN2CC3CC(C2)[C@H]2CCCC(=O)N2C3)CC1 (some centres undefined),-8%
O=C(NCCc1noc(-c2cccnc2)n1)C1CCC1,11%
C#CCNC(=O)CC[C@@H]1CNC(=O)[C@@H]2C[C@H](NC(=O)Nc3cccc(Cl)c3)CN12,9%[70.6 µM]
O[C@@H]1C[C@@H](c2nc(-c3ccncc3)no2)N(Cc2ccc(F)cc2)C1,-3%[70.6 µM]
Cc1noc([C@@H]2CN(C(=O)c3occc3C)C[C@H]2CO)n1,-6%
Cc1noc(-c2ccn3c(CNC(=O)Cc4ccccc4Cl)nnc3c2)n1,7%
Cc1oc(C(O)c2ccccc2)nc1C(=O)Nc1ccccc1 (centres undefined),-21%[70.6 µM]
O=C(c1cccc(O)c1)N1CCC(CO)(CN2CCCC2)CC1,6%
O=C(NCc1ccc(N2CCOCC2)cc1)c1cc2cn(C3CC3)cc2s1,-13%
CCN1CCC(CC(=O)N2CCC(n3c(C)cnc3C)CC2)CC1,-1%

# Sorted by length of the SMILES (smallest number first): four of the compounds above
SMILES,NPR1 antag
O=C(c1cccc(O)c1)N1CCC(CO)(CN2CCCC2)CC1,6%
CCN1CCC(CC(=O)N2CCC(n3c(C)cnc3C)CC2)CC1,-1%
CC1CCC2(CC1)NC(=O)N(CC(=O)NCc1ccco1)C2=O (centres undefined),4%
C#CCNC(=O)CC[C@@H]1CNC(=O)[C@@H]2C[C@H](NC(=O)Nc3cccc(Cl)c3)CN12,9%[70.6 µM]

# The listing picks up, starting 6 compounds before the break.
SMILES,NPR1 antag
Cc1noc([C@@H]2CN(C(=O)c3occc3C)C[C@H]2CO)n1,-6%
Cc1noc(-c2ccn3c(CNC(=O)Cc4ccccc4Cl)nnc3c2)n1,7%
Cc1oc(C(O)c2ccccc2)nc1C(=O)Nc1ccccc1 (centres undefined),-21%[70.6 µM]
O=C(c1cccc(O)c1)N1CCC(CO)(CN2CCCC2)CC1,6%
O=C(NCc1ccc(N2CCOCC2)cc1)c1cc2cn(C3CC3)cc2s1,-13%
CCN1CCC(CC(=O)N2CCC(n3c(C)cnc3C)CC2)CC1,-1%
CN1CC(=O)N(c2ccccc2F)Cc2c(NCCO)ncnc21,-12%[70.6 µM]
Cc1ccc(CN2C(=O)C3(CCOCC3)CC2c2nnnn2C(C)(C)C)cc1C (centres undefined),0%
O=C(c1ccc2c(c1)OCO2)N1CCC2(Cc3ccccc3NC2=O)C1 (centres undefined),-5%
O=C1N(Cc2ccccn2)C[C@H]2CN(Cc3ccc(C(F)(F)F)cc3)CCN12,?
Cc1cc(CNC(=O)c2cc(-c3ccnn3C)cc3c2OCCN3C)no1,-13%[70.6 µM]
CC(C)(C)N1CC(C(=O)NCCCc2ccc(Cl)cc2)CC1=O (centres undefined),-21%
COc1cc(C(=O)N2CC[C@@]3(O)CCN(S(C)(=O)=O)C[C@H]3C2)ccn1,10%
CCC(=O)N(C1CCOCC1)C1CCN(S(=O)(=O)c2ccc3c(c2)CCC3)CC1,-3%
O=C(NC[C@H]1O[C@@H](CC(=O)N2CCN(c3ccccn3)CC2)[C@H](O)[C@@H]1O)c1cccc(F)c1,4%
COc1ccc(CNC(=O)N2C[C@@H](Oc3cccnc3)C[C@@H]2C(=O)N2CCOCC2)cc1,-7%
C[C@@H]1CN(C(=O)c2ccc3c(c2)CCC3)C[C@]1(C)O,13%
O=C(c1ccc(N2CC3CC(C2)[C@H]2CCCC(=O)N2C3)nc1)N1CCOCC1 (some centres undefined),2%
Cn1cccc1C(=O)NC1CCCN(c2cc(-c3ccc(Cl)cc3)[nH]n2)C1 (centres undefined),-30%
CC(C)C1c2nccn2CCCN1C(=O)CCn1cccn1 (centres undefined),2%
CC(=O)Nc1ccc(OCC(=O)N2CCN(c3ccc(Cl)cc3)CC2)nc1,-9%
CC(C)c1nc(N(C)Cc2cc(-c3cccnc3)no2)c2cnn(C)c2n1,-4%
CC(C)CC(C)NC(=O)c1ccc(Cn2ccn3nc4c(c3c2=O)CCCC4)cc1 (centres undefined),0%
COc1cc(Cl)cc(CN2CCC(O)(c3ccccc3)CC2)c1OC,-10%
Cc1nccn1C(C)CN1C(=O)NC2(CCNCC2)C1=O (centres undefined),0%
CN(C)[S+](=O)([O-])c1ccc2c(c1)OCCN(Cc1ccc(F)cc1F)C2,?
CC1CCC(NC(=O)CN2C(=O)NC3(CCOCC3)C2=O)CC1 (centres undefined),-3%
CC1(COc2cccnc2)COc2ccc(C(=O)NCC3CCOCC3)cc2N1 (centres undefined),-2%[70.6 µM]
O=C(NCc1ccc(OC(F)(F)F)cc1)c1cc(CN2CCOCC2)on1,6%
CN(Cc1ccccc1)C(=O)C[C@@H]1CCNC[C@@H]1Cc1cc(-c2ccc(C(C)(C)C)cc2)on1,3%
Cc1ccc(C(=O)NCCC(=O)N2CC[C@@](C)(O)[C@@H](O)C2)cc1,3%
COc1ccc2nc(C[C@@H]3C[C@@H](C(C)C)[C@H](CN)C=C3C)[nH]c2c1,1%[70.6 µM]
O=C(NC1CCCc2c1[nH]c1ccccc21)c1cn(C2CC2)c(=O)c2ccccc12 (centres undefined),-10%
COc1ccc(NC(=O)N2c3ccccc3CC2c2nc(C(C)C)no2)cc1OC (centres undefined),1%
COc1ccc(-c2nc(-c3c(C)noc3C)cc3c2cc(C)n3CCN(C)C)cn1,-10%[70.6 µM]
O=C(N[C@H]1CO[C@H]2[C@@H]1OC[C@@H]2Nc1nccc(-c2cccs2)n1)c1ccccc1,?
CC(=O)N1CCC(Oc2ccc(Cl)cc2C(=O)NCCOc2cccnc2)CC1,9%
Cc1ccccc1N(C)C1CN(Cc2ccccc2)C1,-8%[70.6 µM]
CC1CCC2(CC1)NC(=O)N(CC(=O)N1CCCCCC1)C2=O (centres undefined),0%
Cc1cccc(N2C(=O)CSC23CCN(C(=O)C2CCC2)CC3)c1,0%
CN1CCCC1c1nc(C2CN(C(=O)C3CC3)C2)no1 (centres undefined),11%
O=C1NC(=NC2CCCCC2)C2(CCCN([S+](=O)([O-])c3cccc(C(F)(F)F)c3)C2)N1c1cccnc1 (centres undefined),1%
Cc1csc(NC(=O)[C@@H]2C[C@@H](c3ccc(F)cc3)N([S+](=O)([O-])c3ccccc3)C2)n1,-19%
COc1ccccc1N1CCN(C(=O)C2N(C(C)C)C(=O)C23CCCCC3)CC1 (centres undefined),-12%
Cc1ncoc1C(=O)N1CCC(F)(c2nc(-c3ccncc3)no2)CC1,-2%
CCn1ncc(CN2CC[C@@H]3CN(S(C)(=O)=O)[C@@H]3C2)c1C,1%
CC(C(=O)NCc1ccc(C(F)(F)F)cc1)C1CCOCC1 (centres undefined),1%
CN(C)c1ccc(CN2CC[C@H](c3nc4ccccc4n3C)C2)cc1,-3%[70.6 µM]
COCCN1C(=O)[C@@H]2C[C@@H](CN2Cc2ccccc2)Oc2ccccc21,-1%[70.6 µM]
COc1ccc(CCNC(=O)c2c(C)noc2-c2ccccc2OC)cc1,-13%
O=C(NC[C@H]1OC[C@@H](NC2CCOCC2)[C@@H]1O)C1CC1,-2%[70.6 µM]
Cc1c(F)cccc1NC(=O)N1CC(c2nnc(-c3ccncc3)o2)C2(CCOCC2)C1 (centres undefined),1%
Cc1cccc(CN(C(=O)c2ccco2)c2ccc(CC(=O)NCC3CCCO3)cc2)c1 (centres undefined),-14%
CNc1ncc(C(=O)N2CCCC(CC=C(C)C)(C(=O)O)C2)cn1 (centres undefined),5%
CCC(C)NC(=O)N1CC(Oc2ccc(-c3nc(C)no3)cc2)C1 (centres undefined),-11%
CC(C)CN1C(=O)c2cccn2CC1C(=O)NCCN1CCCC1 (centres undefined),2%
COc1ccc(-c2cc(N3CCCN(C(=O)CCCc4ccccc4)CC3)n[nH]2)cc1,-14%
Cc1cccc(CC(=O)N2CC(c3nnc(C(C)C)o3)C3(CCOCC3)C2)c1 (centres undefined),-1%
COCC(=O)N1CCC2(CC1)C(=O)NCN2Cc1ccc(Cl)cc1,5%
COc1cccc(NC(=O)O[C@@H]2CC[C@]3(C)C(CC[C@@H](O)[C@H]3CC(=O)N3CCCC3)[C@]2(C)CO)c1 (some centres undefined),-3%
CNC(=O)c1cc[nH]c1C1CCCN(C(=O)Cn2c(=O)oc3ccccc32)C1 (centres undefined),4%
COc1ccc(CCC(=O)NC2CCN(c3cc(C(F)(F)F)nc(C)n3)CC2)cc1,-17%
COc1ccc(N2CC(c3noc(-c4ccc(C)c(C)c4)n3)CC2=O)cc1OC (centres undefined),-2%
O=C(c1ccc(N2CCCOCC2)nc1)N1CCC(Oc2cccnc2)CC1,5%
CN(Cc1ccccc1)Cc1cc(C[C@@H]2C[C@H](NC(=O)C3CC3)C2(C)C)no1,-27%[70.6 µM]
C[C@@H](NC(=O)NC(C)(C)C)c1onc(-c2ccc(Cl)cc2)c1C(=O)O,-3%[70.6 µM]

# An excerpt from above in order of the NPR1 antag value, rising.
structure | NPR1 antag
COc1ccc(CCC(=O)NC2CCN(c3cc(C(F)(F)F)nc(C)n3)CC2)cc1 | -17%
Cc1cccc(CN(C(=O)c2ccco2)c2ccc(CC(=O)NCC3CCCO3)cc2)c1 (centres undefined) | -14%
COc1ccc(N2CC(c3noc(-c4ccc(C)c(C)c4)n3)CC2=O)cc1OC (centres undefined) | -2%
CNc1ncc(C(=O)N2CCCC(CC=C(C)C)(C(=O)O)C2)cn1 (centres undefined) | 5%

# Next section
SMILES,NPR1 antag
CCOc1ccc2c(n1)CCN(C(=O)c1nn(C)c3ccccc13)C2,5%
CO[C@H]1C(=O)N(C2CCNCC2)[C@H]1c1ccncc1,-3%
Fc1ccccc1CN1CCNc2cnc(Nc3ccccc3)cc2C1,?
Cc1cc(C(=O)N2CCCCCCNC(=O)CC2)nn1C,-1%
O=c1c2c(CO)c(-c3ccccc3)nn2ccn1Cc1ccccc1,-5%
CN(C1CCCCC1)S(=O)(=O)C1CCS(=O)(=O)C1 (centres undefined),3%
